Screens (PubChem BioAssay)
Mtb H37Rv = Mycobacterium tuberculosis H37Rv growth inhibition, cell based, confirmatory dose response (AID 1949); most inactive calls were filed without a number and no value below 0 was filed; inhibition, % at 10 µg/mL; hits with a dose series show IC50 in µg/mL; hit rate 1.6% among 100,000;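 active means confirmed in a dose series; inconclusive means about 50% or more but not retested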;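 further: bacteria grown 7 days with compound before Alamar blue readout; 0% = untreated bacteria and 100% = reference antibiotic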
Active calls of the source: *; i = inactive; u = inconclusive.

SMILES	Mtb H37Rv
CC(=O)Nc1ccc(NC(=O)CN(c2cccc(Br)c2)S(=O)(=O)c2ccc(C)cc2)cc1	5%
CCc1ccccc1NS(=O)(=O)c1ccc(Cl)cc1	i
CC(c1ccc(F)cc1)n1c(-c2ccc3ccccc3n2)n[nH]c1=S (centres undefined)	1%
O=C(Oc1ccc(C(=S)N2CCOCC2)cc1Br)c1cc(Cl)ccc1Cl	1%
O=C(O)c1ccc(NC(=S)NC(=O)C(c2ccccc2)c2ccccc2)cc1Cl	i
O=C1c2cccc3c(Cl)ccc(c23)C(=O)N1c1ccccn1	i
Cc1ccc(C(=O)N2CCN(c3ccc([N+](=O)[O-])c(-n4nc(C)c5ccccc5c4=O)c3)CC2)cc1	i
C=CCN(C)C1CC(=O)N(c2ccc(Br)cc2)C1=O (centres undefined)	27%
CCCCC(=O)Nc1ccc(NCc2c(F)cccc2Cl)cc1	8%
CC(C)(C)c1cc(Cl)c(O)c(NC(=O)c2cncc(Br)c2)c1	0%
COc1ccc(C(=O)OCc2c(F)cccc2Cl)cc1	i
C=CCSc1nnc(NC(=O)CSc2ccccn2)s1	i
Fc1ccccc1OCCNC1CCCC1	i
COc1cccc(C(=O)Nc2nc(-c3ccc(S(=O)(=O)N4CCOCC4)cc3)cs2)c1	i
CCOC(=O)C1=C(C)NC(SCc2ccc(F)cc2)=C(C#N)C1c1cccs1 (centres undefined)	1%
CCC(C)C(=O)Nc1cc(OC)c(OC)cc1C(=O)O (centres undefined)	1%
CCCOc1c(Br)cc(C2NC(=O)NC(c3ccccc3)=C2C(=O)OCC)cc1OC (centres undefined)	4%
COc1ccc(NC(=O)CN2CCN(c3ccccc3)CC2)cc1	i
COc1ccc(OCC(=O)Nc2cccc(-c3cnc4ccccc4n3)c2)cc1	6%
COc1cccc(NC(=O)CSc2nnc(CNC(=O)c3ccc(Cl)cc3)n2-c2ccccc2)c1	i
Cc1c(C(=O)N2CCC(Cc3ccccc3)CC2)oc2ccccc12	3%
CCS(=O)(=O)NCCC(c1ccccc1)c1ccccc1	i
CCc1cccc(OCC(=O)Nc2ccc(OCc3ccccc3)cc2)c1	i
Cc1cc(C)nc(SCCC(=O)N2CCCCC2)n1	i
Cc1ccc(C)c(S(=O)(=O)NC(Cc2c[nH]c3ccccc23)C(=O)O)c1 (centres undefined)	i
Next records
SMILES	Mtb H37Rv
O=C(COc1cccc2ccccc12)Oc1ccc(Cl)cc1Br	i
c1ccc(Cn2cnc3ccccc32)cc1	i
COc1ccccc1Cn1cnc2ccccc21	i
C=CCNC(=S)NS(=O)(=O)c1ccc(Cl)s1	i
CCC(N=C1NS(=O)(=O)c2ccccc21)c1ccccc1 (centres undefined)	i
C=CCc1cccc(CNc2ccc(C(=O)OCC)cc2)c1O	36%
COc1ccc(-c2cc(-c3ccc(OC)cc3O)[nH]n2)cc1	44%
CCn1c(CNC(=O)c2cccc(C)c2)nnc1SCC(=O)Nc1cc([N+](=O)[O-])ccc1C	i
COc1ccc(OCC(=O)Nc2nc3ccc(S(C)(=O)=O)cc3s2)cc1	i
COc1ccccc1OCCSc1nnc(C)n1-c1ccccc1	i
Clc1ccc(OCc2nc(-c3cccnc3)no2)c(Br)c1	i
CCOCCOc1cccc(C(=O)Nc2ccc(C)c(C)c2)c1	i
C=CCn1cnc2sc3c(c2c1=O)CCC(C)C3 (centres undefined)	i
CCCCc1ccc(NC(=S)N2CCN(c3ccccn3)CC2)cc1	i
O=C(O)c1ccc(Cl)c(S(=O)(=O)Nc2ccc(Cl)cc2)c1	i
COc1ccc(C(=O)NC(=S)Nc2ccc3[nH]c(=O)[nH]c3c2)cc1Br	0%
CNCc1c(OCc2ccccc2F)ccc2ccccc12	16%
Cn1nnc2cc(NC(=O)NC3CCCCC3)ccc21	i
COCC(C)NC(=O)c1c(-c2ccccc2Cl)noc1C (centres undefined)	i
CCc1nnc(NS(=O)(=O)c2ccc(NC(=O)c3ccc4c(c3)OCCO4)cc2)s1	i
CCNc1cc(N2CCN(C(=O)C(C)C)CC2)ccc1[N+](=O)[O-]	i
NCCNCCOCCOc1ccc(I)cc1	i
COc1ccc(S(=O)(=O)N(CC(=O)Nc2ccc3ccccc3c2)c2ccccc2OC)cc1	i
CC1(C)Cc2nc(NCCO)c(C#N)cc2CO1	2%
Cc1cccc(OCCn2c(-c3ccc(Cl)cc3)nc3ccccc3c2=O)c1	i
Next section
SMILES	Mtb H37Rv
C=CCNc1cc(N2CCN(C(=O)c3ccc(C)cc3)CC2)ccc1[N+](=O)[O-]	3%
CCCNC(=O)c1ccccc1NC(=O)CN(c1ccc(Oc2ccccc2)cc1)S(C)(=O)=O	i
O=C1CC(N2CCC(C(=O)N3CCCCC3)CC2)C(=O)N1 (centres undefined)	u
O=C(Nc1ccc(N2CCCC2)cc1)c1cccc2c(Br)cccc12	0%
NC(=O)Cn1c(S(=O)(=O)Cc2ccccc2)nc2ccccc21	1%
Cc1ccccc1OCC(=O)Nc1cccc(-c2nnc(-c3ccco3)o2)c1	i
O=C(c1c(F)c(F)c(F)c(F)c1F)N1CCCC1	i
COc1ccccc1OC(=O)c1cc(OC)c(OC)c(OC)c1	i
Cn1c(SCc2ccccc2F)nnc1-c1ccccc1	i
COc1ccccc1OCCOc1ccccc1OC	5%
CCOc1ccc(NC(=O)N2CCN(C(=O)c3sc4cc(Cl)ccc4c3Cl)CC2)cc1	0%
O=C(c1cn(Cc2ccc(Cl)c(Cl)c2)c2ccccc12)C1CC1	i
Cn1nc(-c2ccc(N3CCN(Cc4ccccc4)CC3)c([N+](=O)[O-])c2)c2ccccc2c1=O	2%
Cc1ccc(NC(=O)C(C)Oc2ccccc2)cc1F (centres undefined)	i
Fc1ccc(C2CC(c3cccs3)=NN2C(=S)NCc2ccccc2)cc1 (centres undefined)	i
CC(SCc1ccccc1)C(=O)Nc1ccccc1C(=O)NC(C)c1ccccc1 (centres undefined)	i
CCOc1cc2c(cc1/C=C(\C#N)c1ccc(F)cc1)OCO2	11%
N#Cc1cccc(NC(=O)c2ccc(Cl)c(Cl)c2)c1	i
O=C(CSc1nnc(-c2ccccc2)c(-c2ccccc2)n1)C1CC1	i
COCCNC(=O)c1c(NC(=O)COc2cc(C)c(Cl)c(C)c2)sc2c1CCCC2	i
O=c1c2ccccc2nc(/C=C/c2ccccc2Cl)n1-c1ccc(Br)cc1	i
O=C(CN1CCCC1)Nc1sc2c(c1C(=O)Nc1ccccc1)CCC2	i
Cc1cc(C)nc(SCc2nc(C(c3ccccc3)c3ccccc3)no2)n1	1%
Cc1cc(C)c2nc(-c3ccncc3)cc(C(=O)Nc3ccc4c(c3)OCO4)c2c1	11%
CCOc1ccc(NCC(O)Cn2c(C)c(C)c3ccccc32)cc1 (centres undefined)	u
(more compounds)
SMILES	Mtb H37Rv
Cc1ccc(N(CC(=O)Nc2cc(C(F)(F)F)ccc2Cl)S(=O)(=O)c2ccccc2)c(C)c1	0%
Cc1cc(NC(=O)CN2C(=O)/C(=C/c3ccccc3)SC2=S)no1	5%
O=C(CN(c1ccc(I)cc1)S(=O)(=O)c1ccccc1)N1CCOCC1	i
Cc1cc(C)n(CCOc2ccc(Br)cc2)n1	i
Cc1ccc(S(=O)(=O)NCC(N)=O)cc1	i
CC(=O)Nc1ccc(S(=O)(=O)Nc2cccc(I)c2)cc1	i
COc1ccc(NC(=O)C2CCN(C(=O)c3ccc(F)cc3)CC2)cc1	i
Cc1ccc(CN(Cc2ccco2)C(=S)NCC(=O)O)cc1	i
CCCCN(CC)C(=O)c1ccc(C)c(C)c1	0%
CCNC(=O)COc1ccc2ccccc2c1	i
COc1cc(CNc2cc(C)cc(C)c2)cc2c1OCO2	i
COc1ccc(C(=O)N2CCN(CCN3C(=O)c4ccccc4C3=O)CC2)cc1OC	i
COc1ccc(C2(C(=O)Nc3ccc(C(=O)Nc4ccccc4C)cc3)CCOCC2)cc1	1%
O=C(Nc1ccc2c(c1)COC2=O)c1ccc(Cl)c(Cl)c1	i
COC(=O)c1c(NC(=O)c2cncc(Br)c2)sc2c1CCCC2	i
COc1ccc(C(=O)Nc2ccc3c(C)cc(=O)oc3c2)cc1	i
CCc1cccc(CC)c1NC(=O)c1ccc(C)o1	i
Cc1cccc(-n2c(N)cc(=O)nc2SCC(=O)Nc2nc(-c3ccccc3)cs2)c1	3.1µg/mL*
COc1cccc(-c2nc(=S)c3c(n2Cc2ccco2)CCCC3)c1	3%
CCOc1ccc(NC(=O)CN(c2ccc(C)cc2)S(=O)(=O)c2ccc(F)cc2)cc1	i
COc1ccc(-n2cnc3c(sc4nc(N5CCOCC5)c5c(c43)CC(C)(C)OC5)c2=O)cc1	i
CN(C)C(=O)C(c1ccccc1)c1ccccc1	i
COC(=O)c1ccccc1NC(=O)NCCCc1ccccc1	i
CCc1cccc(C)c1NC(=O)CSc1nnc(-c2ccc(C)cc2)n1CC	i
Cc1ccc(/C=C/C(=O)O)cc1S(=O)(=O)NCCO	i

The last two records of the part before are carried over, then new ones follow.
SMILES	Mtb H37Rv
CCc1cccc(C)c1NC(=O)CSc1nnc(-c2ccc(C)cc2)n1CC	i
Cc1ccc(/C=C/C(=O)O)cc1S(=O)(=O)NCCO	i
O=C(CSc1ccc(F)cc1)N1CCc2ccccc21	i
Cc1ccc(NC(=O)Cn2c(S(=O)(=O)Cc3ccccc3)nc3ccccc32)cc1C	i
CCC(=O)Nc1ccc(C(=O)NCc2cccnc2)cc1	i
COc1c(C)cc(Br)cc1C(=O)Nc1cc(C(F)(F)F)ccc1Cl	i
COC(=O)c1ccc(Cl)c(NC(=O)CSCc2ccc([N+](=O)[O-])cc2)c1	i
CCOc1cccc(C(=O)NC(=S)Nc2ccc(NC(=S)NC(=O)CC)cc2)c1	13%
CCOC(=O)c1c(NC(=S)NCc2ccco2)sc(C)c1-c1ccccc1	i
COc1ccc(CCNC(=O)COc2cc(C)c(Br)c(C)c2)cc1OC	i
CSc1ccc(Cl)c(C(=O)Nc2ccc(OCC(N)=O)cc2)c1	i
CCN(CC)C(=O)COc1ccc2c(oc(=O)c3cc(OC)ccc32)c1C	i
COC(=O)c1cccc(NC(=O)CN(c2ccc(Cl)c(C(F)(F)F)c2)S(C)(=O)=O)c1C	i
O=C(COc1ccc(-c2ccccc2)cc1)c1ccc(F)cc1	i
COc1ccc(S(=O)(=O)N2CCN(C(=O)c3ccco3)CC2)cc1OC	i
COc1ccccc1N1CCN(S(C)(=O)=O)CC1	i
CCOC(=O)c1oc2cccc(OC(C)=O)c2c1C	i
Cc1ccc(S(=O)(=O)c2ccc(C)c(C)c2)cc1C	2%
N/C(=N\OC(=O)CCC1CCCC1)c1cccnc1	i
COc1ccc(-c2nc3ccccc3o2)cc1NC(=O)CC(C)C	i
O=C(c1ccco1)N1CCN(C(=O)c2ccc(COc3ccc4c(c3)CCC4)o2)CC1	i
CC(=O)Nc1ccc(N2CCOCC2)c([N+](=O)[O-])c1	i
O=C(NC(Cc1ccccc1)c1nc2ccccc2n1Cc1ccccc1)c1ccccc1 (centres undefined)	i
CCOC(=O)c1ccccc1NC(=O)c1c(F)c(F)c(F)c(F)c1F	u
COc1ccc(N(CC(=O)Nc2ccccc2C(=O)NCC(C)C)S(=O)(=O)c2ccc(C)c([N+](=O)[O-])c2)cc1	i
CCCCN(C1CCS(=O)(=O)C1)S(=O)(=O)c1ccc(F)cc1 (centres undefined)	3%
O=S(=O)(c1cccc2nsnc12)N1CCN(c2ccc(F)cc2)CC1	i
New compounds follow
SMILES	Mtb H37Rv
COc1ccc(NC(=S)Nc2ccn(Cc3c(F)c(F)c(F)c(F)c3F)n2)cc1OC	i
COC(=O)CNC1CC(=O)N(c2ccccc2)C1=O (centres undefined)	i
CCOc1nnc(-c2ccc(C)c(S(=O)(=O)NCc3cccnc3)c2)c2ccccc12	8%
O=C(Nc1ccc([N+](=O)[O-])c(NC(=O)C(F)(F)F)c1)C(F)(F)F	i
CC(C)NC(=O)c1ccc(Br)o1	i
O=S(=O)(Nc1nnc(Cc2ccccc2)s1)c1ccc(Cl)cc1	i
COc1ccc(C)cc1NC(=O)NNC(=O)C1(C)CC1(Cl)Cl (centres undefined)	0%
CCOC(=O)NC(=O)c1ccc2ccccc2n1	i
CCCCOc1ccccc1NC(=O)C(C)N1C(=O)c2ccccc2C1=O (centres undefined)	i
Cc1cc(=O)oc2cc(NC(=S)N3CCN(C(=O)C4CCCO4)CC3)ccc12 (centres undefined)	i
Cc1nnc(NC(=O)CCn2cnc3ccccc3c2=O)s1	i
CCOC(=O)c1ccc(N2C(=O)NC(C(F)(F)F)(C(F)(F)F)C3=C2CC(C)(C)CC3=O)cc1	i
CC1=NN(C(=O)c2cccc(Cl)c2)C(O)(c2ccc(Cl)cc2)C1 (centres undefined)	u
O=C(CN1CCN(c2ccc(F)cc2)CC1)Nc1ccc(Oc2ccccc2)cc1	35%
Cc1cc(C)c(C)c(OCCCSC#N)c1	i
C=CCNC(=O)c1ccccc1NC(=O)c1ccco1	i
O=C(Nc1ccc(Br)cc1F)C1CCN(C(=O)Cc2ccccc2)CC1	i
COC(=O)c1ccc(OCc2ccc(Cl)cc2Cl)c(OC)c1	i

A stretch from further up:
SMILES	Mtb H37Rv
COc1ccc(C)cc1NC(=O)NNC(=O)C1(C)CC1(Cl)Cl (centres undefined)	0%
CCOC(=O)NC(=O)c1ccc2ccccc2n1	i
CCCCOc1ccccc1NC(=O)C(C)N1C(=O)c2ccccc2C1=O (centres undefined)	i
Cc1cc(=O)oc2cc(NC(=S)N3CCN(C(=O)C4CCCO4)CC3)ccc12 (centres undefined)	i
Cc1nnc(NC(=O)CCn2cnc3ccccc3c2=O)s1	i
CCOC(=O)c1ccc(N2C(=O)NC(C(F)(F)F)(C(F)(F)F)C3=C2CC(C)(C)CC3=O)cc1	i
CC1=NN(C(=O)c2cccc(Cl)c2)C(O)(c2ccc(Cl)cc2)C1 (centres undefined)	u
O=C(CN1CCN(c2ccc(F)cc2)CC1)Nc1ccc(Oc2ccccc2)cc1	35%
Cc1cc(C)c(C)c(OCCCSC#N)c1	i
C=CCNC(=O)c1ccccc1NC(=O)c1ccco1	i
O=C(Nc1ccc(Br)cc1F)C1CCN(C(=O)Cc2ccccc2)CC1	i
COC(=O)c1ccc(OCc2ccc(Cl)cc2Cl)c(OC)c1	i

These rows are one share of the data; the hit share may differ from the screen's.
